# Autofluor counter: counter-screen for toxin protease inhibitors: compound fluorescence; compound autofluorescence counterscreen, microsphere flow cytometry; stronger effect = higher value; fluorescence intensity (concentration not given with the values); 3.1% of 360,000 active; AID 624483;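 active means at least 3 SD above the mean of all compounds, about 16000 in these data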;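 further: 100 nL of 1 mM stock went into each well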
# PrP UTR inh: inhibition of PrP 5' UTR reporter expression | cell-based PrP 5' UTR mRNA reporter, plate reader | inhibition, % (concentration not given with the values) | 0.35% of 340,000 active | AID 488862;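 active means every replicate at 50% or more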;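 further: 0 = median of the neutral control wells; tested in H4 reporter cells; numbers are from one replicate; inactives centre near -14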
# * marks the source's active call; other numbers are inactive results; & = joins results of further samples.
compound,Autofluor counter,PrP UTR inh
C=CC[C@H](CC(=O)N(CCO)Cc1ccccc1)C(=O)NCCOC(=O)[C@@H](CC=C)CC(=O)OC(C)(C)C,3835,0
CCN(CC)C1Oc2cc3c(cc2C(c2cc(OC)c(OC)c(OC)c2)C1C)OCO3 (centres undefined),2951,3
C=CC[C@@H](CC(=O)NCCO)C(=O)N[C@H](C)COC(=O)[C@@H](CC=C)CC(=O)OC(C)(C)C,3586,-21
O=C1NC(=O)C(Cc2ccccc2)(Cc2ccccc2)C(=O)N1Cc1ccccc1,3174,-26
COc1cc(OC)cc(-c2sc3ccc(OC)cc3c2C#CCO)c1,3819,-26
COC(=O)C1=C(c2ccc3ccccc3c2)C[C@@H]2CC[C@H]1N2C(=O)NC1CC1,3940,-13
CN(Cc1ccc(Cl)cc1Cl)C(=O)CCNC(=O)c1ccco1,4077,-22
O=S(=O)(N/N=C1\CCCc2ccccc21)c1ccccc1,3902,-1
COc1cccc(/C=N/NC(=O)c2cc(-c3ccccn3)nc3ccccc23)c1O,3464,10
C/C(=N\NC(=O)c1ccccc1OCc1ccc(F)cc1)c1ccccn1,3840,11
COc1cccc(/C=N/n2nnc3c(cnn3-c3ccccc3)c2=O)c1,2899,4
CN(C)c1ccc(C=C2C(=O)NC(=S)NC2=O)cc1[N+](=O)[O-],3278,-22
CCOC(=O)Cn1c(C(F)(F)F)nc2nc(Cl)c(Cl)nc21,3465,-22
CC(C)(C)OC(=O)C[C@H]1C/C=C\C[C@@H](CC(=O)N[C@H](CO)Cc2ccccc2)C(=O)NCCOC1=O,3583,-15
COc1ccc2c(c1)[C@H]1[C@H](CO2)[C@H](c2ccccc2)[C@]2(C)C(=O)Nc3cc(F)ccc3C(=O)N12,3433,-45
CCOC(=O)[C@H]1[C@H]2COc3cc(OC)ccc3[C@@H]2N2C(=O)CN(CCc3c[nH]c4ccccc34)C(=O)[C@@]12C,4778,-25
Cc1nc(N)nc(N)c1-c1ccc([N+](=O)[O-])cc1,3900,-48
CC[C@]12C(=O)N(C)C[C@H]([C@@H]3C(=O)N(C)C(=O)[C@@H]31)N2C(=O)c1ccc(Cl)cc1,3962,-23
COc1ccc(NC(=O)N(C)C[C@H]2Oc3ccc(NC(=O)Cc4ccccc4)cc3CC(=O)N([C@H](C)CO)C[C@H]2C)cc1,4222,-8
C[C@@H]1CCC(=O)N(C[C@@H](C)CSc2ccc(Br)cc2)CC1,3786,-7
COc1ccc(S(=O)(=O)N(C)C[C@H]2Oc3c(NC(=O)Nc4ccc(C(F)(F)F)cc4)cccc3C(=O)N([C@H](C)CO)C[C@@H]2C)cc1,4362,-8
CC[C@@H](C)[C@H](C(CC(=O)N1CCCC1[C@@H](OC)[C@H](C)C(=O)N[C@H](Cc1ccccc1)c1nccs1)OC)N(C)C(=O)[C@H](NC(=O)[C@@H](C(C)C)N(C)C)C(C)C (some centres undefined),2953,56*
CC(=O)Nc1nc(-c2ccccc2)cc(-c2ccco2)c1C#N,3609,-56
COc1cccc2c1C(=O)c1c(O)c3c(c(O)c1C2=O)CC(O)(C(C)=O)CC3OC1CC(N(C)C)C(O)C(C)O1 (centres undefined),2982,88*
C=CCC[C@H](Cc1ccc(F)cc1)C(=O)OC[C@H](Cc1c[nH]c2ccccc12)NC(=O)[C@H](CC=C)CC(=O)N[C@H](CO)Cc1ccccc1,3594,-13
COC1C(O)C(O)C(O)C(O)C1O (centres undefined),5576,-6
CCOC(=O)[C@H]1[C@H]2COc3ccc(C)cc3[C@@H]2N2C(=O)c3cc(Cl)ccc3NC(=O)[C@@]12C,3575,-14
COc1ccc(SC[C@H](C)CN2CC[C@H](C(C)(C)C)CCC2=O)cc1,3890,-17
COC(=O)C1=C(c2ccc(OC)c(OC)c2)C[C@@H]2CC[C@H]1N2C(=O)NCc1ccc(F)cc1,3682,-1
COc1ccc(Cl)cc1CC=NNC(=O)c1cccc(C)c1O,3776,-25
Nc1cc2c(cc1[N+](=O)[O-])-c1ccccc1C2=NO,3632,-19
C=CCN1C=CC(=O)[C@@H](OC(=O)Nc2ccc(Br)cc2)[C@H]1c1ccccc1Br,3726,-11
O=C1NC[C@H](c2ccccc2)OC(=O)[C@H](Cc2ccc(F)cc2)C/C=C\C[C@H]1CC(=O)N(CCO)Cc1ccccc1,3718,12
O=C(N/N=C/c1cc(Br)c(O)c(Br)c1)c1cc2c(ccc3ccccc32)o1,4950,0
CN1C[C@H](C(=O)N[C@]2(C)O[C@@]3(O)[C@@H]4CCCN4C(=O)[C@H](Cc4ccccc4)N3C2=O)CC2c3cccc4[nH]cc(c34)C[C@H]21 (some centres undefined),7265&5199,-16&-23
O=C(N/N=C/c1ccc2c(c1)OCO2)c1ccn(Cc2ccc(Cl)cc2)n1,4899,-26
Cc1ccc2c(c1)[C@H]1[C@H](CO2)[C@H](c2ccccc2)[C@]2(C)C(=O)N(Cc3ccc(F)cc3)CC(=O)N12,4079,-17
O=C(CNC(=O)C1CCCCC1)OCC(=O)c1ccc(F)cc1,2802,-6
C[C@@]12C(=O)N(c3ccc(Cl)cc3)C(=O)N1[C@@H]1c3ccccc3OC[C@@H]1[C@H]2c1ccccc1,3972,-16
OCC[C@H]1C[C@H](O)[C@@H](O)[C@@]2(OCCCc3ccccc32)O1,3079,-9

# By substructure, those above with an aryl thioether with sulfur outside any ring
compound,Autofluor counter,PrP UTR inh
C[C@@H]1CCC(=O)N(C[C@@H](C)CSc2ccc(Br)cc2)CC1,3786,-7
COc1ccc(SC[C@H](C)CN2CC[C@H](C(C)(C)C)CCC2=O)cc1,3890,-17

# (cont.)
compound,Autofluor counter,PrP UTR inh
COc1ccc(OC[C@@H](O)CNC(=O)c2cccc3c2C(=O)c2ccc(Cl)cc2S3(=O)=O)cc1,2790,-20
O=[N+]([O-])c1ccc(COc2cccc(CN3CCCC3)c2)cc1,3986,-8
O=C1CCc2cc(Br)ccc2O1,4170,-7
O=C(O)c1ccc(-n2cc(-c3cc4ccccc4oc3=O)[nH]c2=S)cc1,4721,-34
CC(C)Oc1ccc2ccccc2c1CNC[C@H]1O[C@@H](n2cnc(C(N)=O)n2)[C@H](O)[C@@H]1O,3920,-8
CCc1nc(C)cn1S(=O)(=O)c1ccc2c(c1)OCCO2,3915,-7
CC1(N=Cc2cc(Cl)ccc2O)COP(=O)(Nc2ccccc2)OC1 (centres undefined),3541,-11
OCCN1CCN(CC/C=C2/c3ccccc3Sc3ccc(Cl)cc32)CC1,6321,82*

# 2 entries picked at random from those above, as already listed:
compound,Autofluor counter,PrP UTR inh
O=[N+]([O-])c1ccc(COc2cccc(CN3CCCC3)c2)cc1,3986,-8
COc1ccc(OC[C@@H](O)CNC(=O)c2cccc3c2C(=O)c2ccc(Cl)cc2S3(=O)=O)cc1,2790,-20

# The list goes on.
compound,Autofluor counter,PrP UTR inh
C[C@H]1CN([C@@H](C)CO)C(=O)Cc2cc(NC(=O)CCC(F)(F)F)ccc2O[C@H]1CN(C)S(C)(=O)=O,4023,-1
COCCNC(=O)N1[C@H]2CC[C@@H]1C(C(=O)OC)=C(c1ccc(-c3ccccc3)c(F)c1)C2,3783,-26
COc1ccc([C@H]2CC(=O)C=C(/C=C/Cc3ccccc3)C2)cc1,3029,-5
O=C1c2ccccc2-c2cc3ccccc3cc21,3972,-53
C#CCOCCOCCOCCNc1nc(N2CCN(C(=O)CCCCCCCCCCNC(=O)[C@H](CCCCN)n3cc(C)nn3)CC2)nc(N2CCN(C(=O)CCCCCCCCCCNC(=O)[C@H](CCCCN)n3cc(CCCC(=O)O)nn3)CC2)n1,4033,-4
C=CCC[C@@H](Cc1ccc(F)cc1)C(=O)O[C@H](CNC(=O)[C@H](CC=C)CC(=O)N(CCO)Cc1ccccc1)c1ccccc1,4255,-14
C/C(=N\Nc1ccc(S(=O)(=O)N2CCCCC2)cn1)c1ccc(O)cc1,6428,-12
O=C1OC[C@@H]2CCCN2C(=O)[C@H](CC(=O)N(CCO)Cc2ccccc2)C/C=C\CC[C@@H]1Cc1ccc(F)cc1,3961,-12
CC(C)(C)[C@H]1COC(=O)CC/C=C\C[C@@H](CC(=O)N[C@H](CO)Cc2ccccc2)C(=O)N1,3895,-3
C[C@H]1CN([C@@H](C)CO)C(=O)Cc2cc(NS(=O)(=O)c3cn(C)cn3)ccc2O[C@@H]1CN(C)C(=O)Nc1ccc(F)cc1,3484,-12
COc1cc(C2C3=C(COC3=O)Oc3cc4c(cc32)OCO4)cc(OC)c1O (centres undefined),3572,48
Cc1cc(=O)oc2c(O)c(O)ccc12,5508,-36
COc1ccc(S(=O)(=O)Nc2cccc3c2O[C@@H](CN(C)CC2CC2)[C@@H](C)CN([C@@H](C)CO)C3=O)cc1,2907,-10
CCOC(=O)N1C(=O)NC(=O)C1c1ccccc1 (centres undefined),4374,-26
CCC/C(=C1/c2ccccc2C(=O)N1c1ccccc1)c1ccc2[nH]ccc2c1,4174,-9
C[C@@H](C(=O)NCCc1c[nH]c2ccccc12)[C@@H]1C[C@@]1(C)[C@@H](NC(=O)OCc1ccccc1)c1ccccc1,3917,-20

# Continued:
SMILES | Autofluor counter | PrP UTR inh
CC(Cc1ccccc1)N(C)C(=O)CN1C(=O)c2ccccc2C1=O (centres undefined) | 3068 | 10
COc1ccc([C@H]2CC(=O)C=C(c3ccc4ccn(C)c4c3)C2)cc1 | 2867 | 4
c1ccc(CCCNCCCn2cnc3c(OCc4ccccc4)ncnc32)cc1 | 3449 | 13
Cc1cc2c(cc(C(=O)OC(C)C(=O)NCc3ccccc3)n2C)o1 (centres undefined) | 3089 | -18
C=CC[C@@H](CC(=O)N[C@H](CO)Cc1ccccc1)C(=O)N[C@H](COC(=O)[C@@H](CC=C)Cc1ccc(F)cc1)C(C)(C)C | 3057 | -7
NC(=S)NN=C1c2cc(Cl)ccc2-c2c1cc(Cl)cc2[N+](=O)[O-] | 3679 | -22
S=c1[nH]c2ccccc2n1CCc1ccncc1 | 4226 | -24
CN1C[C@@H]2[C@@H]3C(=O)N(C)C(=O)[C@@H]3[C@](C)(C1=O)N2C(=O)c1ccc(F)cc1 | 3911 | -13
CCOC(=O)[C@H]1[C@H]2COc3ccccc3[C@@H]2N2C(=O)c3cc(Cl)ccc3NC(=O)[C@@]12C | 4122 | -3
Cc1ccc2c(c1)C(=O)N1[C@H]3c4cc(C)ccc4OC[C@@H]3[C@H](c3ccccc3)[C@]1(C)C(=O)N2 | 3575 | -34
CC(=O)C[C@H](O)CC(=O)[C@H]1OC(=O)CCCCCCCc2ccccc21 | 2926 | -6
NC(=O)C1(Nc2ccc(-c3ccccc3)cc2)CCCC1 | 4201 | 42
C=CCN1C=C(C(C)=O)C(=O)CC1 | 3815 | -18
COc1cccc2sc3cc(NCC[C@@H]4CCCN4C)ccc3c(=O)c12 | 6713 | -7
Cc1ccc(C)c(-n2sc3ccc(F)cc3c2=O)c1 | 4137 | -14
Cc1ccc(S(=O)(=O)N2[C@@H](c3ccccc3)C(C(=O)O)=CC[C@H]2c2ccc(Cl)cc2)cc1 | 2956 | -2
CC(C)C[C@@H](CN)NC(=O)c1nc[nH]c1C(=O)N[C@@H](Cc1c[nH]c2ccccc12)C(=O)CNC[C@H](C)NC(=O)c1nc[nH]c1C(=O)N[C@@H](C)C(=O)O | 3568 | -20
C=CCC[C@@H](Cc1ccc(F)cc1)C(=O)OC[C@H](Cc1c[nH]c2ccccc12)NC(=O)[C@@H](CC=C)CC(=O)N[C@H](CO)Cc1ccccc1 | 2824 | -17
Nc1ncnc(Nc2ccccc2Oc2ccccc2)n1 | 3871 | -16
COc1cccc(OC)c1C(=O)N[C@@H]1C(=O)N2[C@@H]1SC(C)(C)[C@@H]2C(=O)O | 4031 | -11
CCOC(=O)[C@@H]1[C@H]2COc3cc(OC)ccc3[C@@H]2N2C(=O)N(c3ccc(OC)cc3)C(=O)[C@@]12C | 3992 | -4
O=C(CCc1nc2ccccc2c(=O)[nH]1)N1CCN(c2ccccc2Cl)CC1 | 3954 | -14
COC(=O)C1=C(c2ccc(F)cc2F)C[C@@H]2CC[C@H]1N2C(=O)N1CCCCC1 | 3891 | 0
N#CCCN(C(=O)COC(=O)C1CCN(S(=O)(=O)c2ccccc2C(F)(F)F)CC1)c1ccccc1 | 3680 | -16
CCOC(=O)c1c(C)cc(O)cc1O | 5324 | -15
C=C(CN(C)C)C(=O)c1cc(C)ccc1C | 3454 | -13
NCCCCCc1cn([C@@H](CO)C(=O)NCCCCCCCCCCC(=O)N2CCNCC2)nn1 | 3669 | -2
COc1cc(/C(C)=N/NC(=O)c2ccc(CSc3nncn3C)cc2)cc(OC)c1OC | 3783 | -18
COc1ccc(CCNC(=O)C2CCN(Cc3nc(-c4ccc(Cl)cc4)oc3C)CC2)cc1OC | 3492 | -12
CCCCN1CC(=O)N2[C@H]3c4cc(C)ccc4OC[C@@H]3[C@H](C(=O)OCC)[C@]2(C)C1=O | 3480 | -9
COc1cc2c(ccc3c4cc(OC)c(OC)cc4c[n+](C)c23)cc1O | 3386 | 21
COc1ccc([C@H]2CC(=O)C=C(c3c(C)cc(C)cc3C)C2)cc1 | 4013 | 17
CC(Oc1nc2c(c(=O)n(C)c(=O)n2C)n1C)C1CCCCC1 (centres undefined) | 3591 | -3
C[C@H](O)[C@@H]1C(=O)N2CCc3ccc(N4CCN(C)CC4)cc3[C@@H]2C[C@@H]1N(C)C(=O)c1ccc(C#N)cc1 | 3508 | -24
COc1ccc(SC[C@H](Cc2ccccc2)N2CC[C@@H](O)CCC2=O)cc1 | 3589 | -4

# Profiles as entered above. Order of values: Autofluor counter, PrP UTR inh
# CC(Oc1nc2c(c(=O)n(C)c(=O)n2C)n1C)C1CCCCC1 (centres undefined) as listed: 3591, -3
# COc1ccc([C@H]2CC(=O)C=C(c3c(C)cc(C)cc3C)C2)cc1 as listed: 4013, 17
# NCCCCCc1cn([C@@H](CO)C(=O)NCCCCCCCCCCC(=O)N2CCNCC2)nn1 as listed: 3669, -2

# Only part of the results is shown, so the mix of outcomes need not match the whole.
